# PrP 5UTR inh = inhibition of PrP 5' UTR reporter expression; cell-based PrP 5' UTR mRNA reporter, plate reader; inhibition, % (concentration not given with the values); 0.35% of 340,000 active;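 active = every replicate at 50% or more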;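 also: 0 = median of the neutral control wells; tested in H4 reporter cells; numbers are from one replicate; inactives centre near -14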
# Autofluor counter = flagged as autofluorescent in microsphere protease counterscreen; compound autofluorescence counterscreen, microsphere flow cytometry; hits give high values; fluorescence intensity (no concentration beside the values); 3.1% of 360,000 active; AID 624483;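 active = at least 3 SD above the mean of all compounds, about 16000 in these data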;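 also: 100 nL of 1 mM stock went into each well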
# Sa ugtP lethal = compounds lethal to S. aureus RN4220 ugtP deletion mutant. growth inhibition, % (test concentration not listed). OD600 growth, 16 h; some inactives read as strong as hits. 0.54% of 330,000 active;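 active = z-score under -3 and OD600 up to 0.15 on both plates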;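 also: plate controls were untreated wells for no effect and antibiotic for full effect; wells of about 80 µL received 100 nL stock; the first replicate is given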
# Mtb hypoxia inh = reduces hypoxia-regulated biosensor signal in M. tuberculosis; fluorescence inhibition, % (no concentration beside the values); 0.1% of 300,000 active; AID 1159583; M. tuberculosis hypoxia-regulated fluorescent reporter, fluorescence;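 active = 35 to 45% if threefold the growth effect, above 45% if 1.5-fold the growth effect; inactive = the rest, general growth blockers included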;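 also: wells of about 50 µL received 100 nL stock; 0% = vehicle wells and 100% = reference inhibitor wells; whole bacteria with a GFP reporter of the hypoxia response; strong numbers were not always called active; many hits fall short of the cut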
# BJeLR lethal = BJeLR cell viability loss; 0.17% of 300,000 active; BJeLR (HRASV12) viability, CellTiter-Glo ATP luminescence, 48 h; reference of the scale not given here; AID 1554; inhibition, % (concentration not given with the values);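 active = replicate mean above 50%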;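 also: 50 nL library stock added to about 25 µL; numbers are from one replicate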
# Sa RN4220 lethal = S. aureus RN4220 growth inhibition; OD600, 16 h; inhibition, % (concentration not given with the values); 0.33% of 330,000 active;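 active = z-score of -3 or lower and OD600 up to 0.18 on both plates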;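 also: plate controls were untreated cells for no effect and reference antibiotic for full effect; stock transfer was 100 nL into about 80 µL; one replicate is shown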
# Mtb hypoxia inh growth = recorded beside Mtb hypoxia inh, whose call it bears; growth inhibition, %; measured here: M. tuberculosis growth (absorbance);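 0% = vehicle and 100% = reference antibiotic; read after six days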
# Starred values were filed as active, the others as inactive; · = not tested or not shown.
mol	PrP 5UTR inh	Autofluor counter	Sa ugtP lethal	Mtb hypoxia inh	Mtb hypoxia inh growth	BJeLR lethal	Sa RN4220 lethal
CC(C)C(NC(=O)C12CC3CC(CC(C3)C1)C2)C(=O)NN=CC1=C(N2CCOCC2)/C(=C\c2cccc([N+](=O)[O-])c2)CC1 (configuration not stated)	·	·	16.5	0.0	12.0	·	0.8
CC(=O)Nc1ccc(S(=O)(=O)NCCSCc2c(Cl)cccc2Cl)cc1	-24.2	21984*	-13.5	1.5	7.6	4.7	6.2
CCCn1c(SCC(=O)c2c(N)n(C3CC3)c(=O)[nH]c2=O)nc2cc(S(N)(=O)=O)ccc21	0.9	6036	1.1	-1.8	3.4	·	-1.5
CC(C)OCCCNC(=O)CCCC(=O)Nc1ccc(OCCc2ccccc2)cc1	6.3	4063	0.5	-5.3	8.5	-5.3	4.0
CC1CCCN(C(=O)CN2C(=O)C(C)Oc3ccccc32)C1 (configuration not stated)	-1.2	4134	2.5	12.4	4.1	3.7	3.2
COc1ccc(NC(=S)N2CCC(c3nc4ccccc4[nH]3)CC2)c(OC)c1	-13.2	9661	1.5	3.0	2.7	-1.9	-1.2
COCCNC(=O)CCCn1c(=O)c2cc(OC)c(OC)cc2n(CC(=O)Nc2ccc(C)c(F)c2)c1=O	-20.3	5735	3.8	12.7	7.8	1.8	0.1
COc1cc(NC(=O)c2cc(CC(C)C)on2)c(OC)cc1Cl	-8.9	5155	3.8	6.2	10.4	-0.9	-10.0
CS(=O)c1ccccc1-c1nc(-c2cccc(Cl)c2)no1 (configuration not stated)	-14.2	4409	-12.0	-3.0	7.4	0.0	7.2
COc1cc(/C=N/NC(=O)c2cc(C)n(-c3ccc(F)cc3)c2C)cc(OC)c1O	12.0	4456	·	·	·	-8.2	·
CCOC(=O)C(=CNNc1ccccc1)C(=O)OCC	-38.8	3695	0.2	10.5	5.5	-0.1	-0.8
O=C(NCCCN1CCOCC1)C(=O)NN=Cc1ccccc1O	·	·	-2.2	12.2	-4.5	·	3.1
CC/C(=N\NC(=O)c1cc(C2CC2)[nH]n1)c1ccccc1	-54.0	4218	·	·	·	0.3	·
COc1cccc(N2CCN(Cc3nnnn3C3CCCCC3)CC2)c1	6.8	4382	4.2	-1.5	14.9	11.5	5.8
C=CCc1cc(/C=N/NC(=O)CSc2nnc(CCCc3ccc(OC)cc3)o2)cc(OC)c1O	-10.5	2284	·	·	·	-3.0	·
CCCC(=O)NC(Nc1ccc(S(=O)(=O)Nc2cc(C)on2)cc1)(C(F)(F)F)C(F)(F)F	-21.8	4253	2.8	·	·	-1.5	0.2
COCC(=O)Nc1sc2c(c1C(=O)OC)C(C(=O)OC)CC2 (configuration not stated)	-16.4	20588*	-4.0	4.9	12.6	7.7	-0.6
Cc1ccc(-n2c(CNc3ccc(F)cc3)nnc2SCC(N)=O)cc1	-14.9	9790	-11.1	-1.9	4.8	-1.2	-0.3
Cc1ccccc1NS(=O)(=O)c1ccc(OCCNS(C)(=O)=O)cc1	-4.8	2502	-4.4	8.3	3.6	7.7	13.7
O=C(OCC(=O)N1CCCCCC1)c1n[nH]c(=O)c2ccccc12	2.1	3710	4.3	14.1	3.8	-5.5	5.2

# Next records:
mol	PrP 5UTR inh	Autofluor counter	Sa ugtP lethal	Mtb hypoxia inh	Mtb hypoxia inh growth	BJeLR lethal	Sa RN4220 lethal
CN1CCN(c2ccc(C(CC(N)=O)NC(=O)Cc3ccc(Br)cc3)cc2[N+](=O)[O-])CC1 (configuration not stated)	-31.3	3434	3.4	5.1	4.9	-12.7	6.7
COC(=O)c1ccc(Nc2ncnc3c2cnn3-c2cccc(C)c2)cc1	-22.6	5912	16.7	1.3	8.5	0.7	1.5
CC1CCCC(NC(=O)COC(=O)c2cccnc2Cl)C1C (configuration not stated)	-16.8	2892	5.3	-4.5	-10.1	·	0.1
CCOc1ccc2nc(NC(=O)Cn3cnc4c3c(=O)n(C)c(=O)n4C)sc2c1	·	12661	2.4	14.9	12.1	-3.7	7.9
CCN(c1ccccc1)S(=O)(=O)c1ccc(Cl)c(NC(=O)COC(=O)c2ccc[nH]c2=O)c1	-0.8	3673	2.4	8.4	7.6	-3.1	10.4
CCOc1cc(S(=O)(=O)N(CC)CC)ccc1Cl	-8.2	4381	6.5	9.4	8.2	-2.6	6.0
CC(C)c1ccc(S(=O)(=O)N2CCN(C(=O)c3cccc(S(=O)(=O)N4CCOCC4)c3)CC2)cc1	-18.0	3500	-10.0	13.8	11.4	·	3.8
Cc1cc(C)nc(SC2c3cccc4cccc(c34)C2NS(=O)(=O)c2ccccc2)n1 (configuration not stated)	-41.8	8837	-16.3	3.4	-2.1	4.2	0.9
COCCNC(=O)Cn1nc(C(F)(F)F)cc1C	-2.5	6425	1.6	2.9	5.1	·	1.1
O=C(CNS(=O)(=O)c1ccc(Br)cc1Cl)OCC(=O)c1ccc[nH]1	-20.5	·	4.4	-6.8	-1.0	3.2	2.6
Cc1nnc(SCC(=O)Nc2ccc(Cl)cn2)n1Cc1ccccc1	-14.9	4613	8.1	-1.4	6.8	1.4	4.6
Cc1cccc(N(CC(=O)N2CCCC2)S(=O)(=O)c2ccccc2)c1C	-14.1	10468	9.9	6.3	2.2	-4.5	8.2
CC(/C=C/c1ccco1)=N\NC(=O)CNc1ccc2ccccc2c1	-20.6	4968	·	·	·	1.1	·
CCn1c(SCC(=O)c2ccc(CNC(C)=O)o2)nnc1-c1cccs1	-5.6	4542	-8.4	6.5	19.0	-19.3	-0.4
CCc1cc2c(C)ccc(C)c2nc1SCC(=O)Nc1cc(C)on1	-22.7	5408	7.3	12.3	5.6	2.2	1.8
Nc1ccc2oc(=O)c3ccccc3c2c1	-54.7	2544	-7.0	-0.6	14.6	12.1	-11.5
COc1ccc(-c2csc3ncnc(N4CCN(c5cccc(OC)c5)CC4)c23)cc1	-38.1	5858	4.5	5.3	10.3	-2.1	0.4
CCCC(=O)N1CCN(c2ccc(NC(=O)c3ccc([N+](=O)[O-])o3)cc2)CC1	-31.0	3141	5.4	·	·	-3.5	33.8
CCOc1ccc(-n2c(SCC(=O)Nc3cc(C)on3)nnc2-c2c[nH]c3ccccc23)cc1	3.7	11242	0.6	0.5	4.6	-7.8	4.3
Cc1cc([N+](=O)[O-])cc2ncccc12	-9.7	2382	-0.3	·	·	5.6	-0.4

# Additional entries.
mol	PrP 5UTR inh	Autofluor counter	Sa ugtP lethal	Mtb hypoxia inh	Mtb hypoxia inh growth	BJeLR lethal	Sa RN4220 lethal
CN1CCN(C=Nc2nc3ccccc3nc2N2CCCC2)CC1	-12.4	4446	13.2	15.1	12.0	5.7	2.3
COC(=O)C1CN(C(=O)c2ccccc2)C(=O)N1 (configuration not stated)	·	·	3.5	6.5	9.9	·	5.7
Cc1ccc(C(=O)OCC(=O)c2c[nH]c3ccccc23)cc1NC(=O)c1ccco1	-0.8	3218	0.7	-12.3	2.5	-8.0	-12.1
CCN1Cc2ccccc2-c2ccccc2S1(=O)=O	-59.8	3774	2.8	0.6	5.7	·	1.2
COC(=O)CC1C(=O)NCCN1C(=S)Nc1ccc(F)cc1 (configuration not stated)	-2.8	3802	1.7	-0.3	-3.1	0.4	1.5
O=C(CSc1nnnn1C1CCCC1)NCc1ccc2c(c1)OCO2	-28.4	7825	-0.7	-1.2	-3.9	-6.5	3.2
CCOC(=O)C1=NN(C(=O)Nc2ccc(OC)cc2)C2C(=O)N(c3cccc(C(F)(F)F)c3)C(=O)C12 (configuration not stated)	-5.5	·	1.2	-2.6	14.1	1.7	13.0
Cc1cc(NC(=O)Cn2cc([N+](=O)[O-])cn2)no1	-10.4	4358	-4.2	-6.1	1.1	2.9	0.5
CCSc1nc2cc(C(=O)OC)ccc2c(=O)n1CC	-16.8	10762	-6.8	-2.3	5.5	1.4	6.9
COc1ccccc1Oc1ccc2c(c1)C(=O)N(c1ccc(O)cc1)C2=O	-13.3	2846	-17.1	·	·	·	2.2
O=C(Nc1ccccc1)Nc1ccccc1Br	-97.6	3216	0.5	1.9	2.9	10.1	-0.8
CC(C)c1nc(C#N)c(NCCCn2ccnc2)o1	-9.6	3190	2.6	·	·	7.7	0.4
CCn1cnc2c(NCCc3cccnc3)nc(C#N)nc21	-22.0	3551	2.0	-2.6	4.5	·	4.9
CCOC(=O)c1sc2nc(NC(=O)C(C)(C)C)sc2c1C	-83.2	5849	14.4	-1.6	8.0	-0.7	-1.5
CN(C)c1ccc(/C=N/NC(=O)CN2CCCCC2)cc1Br	-19.2	4302	·	·	·	-7.8	·
CCN1CNC(=S)N(Cc2ccccc2)C1	-19.6	8740	11.9	-9.4	-3.1	11.7	6.7
Cc1cc(NC(=O)c2noc3c2CCCCC3)nn1Cc1ccc(Cl)cc1	-11.7	8132	1.3	2.1	5.0	10.2	2.2
O=C(CCc1nnc(C2CCCCC2)o1)NCc1cccc(-n2cccn2)c1	4.4	5190	10.4	2.5	-6.4	2.8	-0.4
CCOc1ccc(Oc2nc(NCC(C)C)nc(OC)n2)nn1	-48.2	5790	-4.2	-4.4	-1.8	-0.7	3.0
Cc1ccc(C(O)c2ccncc2)cc1 (configuration not stated)	-18.5	17116*	13.8	4.6	-2.6	-5.6	5.1

# Following part:
mol	PrP 5UTR inh	Autofluor counter	Sa ugtP lethal	Mtb hypoxia inh	Mtb hypoxia inh growth	BJeLR lethal	Sa RN4220 lethal
CC(NC(=O)c1ccccc1)c1nc2ccccc2n1Cc1ccc(C#N)cc1 (configuration not stated)	-14.0	4777	-4.8	·	·	-7.7	-0.7
O=C1COc2ccc(S(=O)(=O)N3CCN(c4cccc(Cl)c4)CC3)cc2N1	-11.4	4051	3.7	-11.0	-3.2	-3.3	0.8
CCC(C)(C(=O)NC1CCCCC1)N(CC1CCCO1)C(=O)c1ccccn1 (configuration not stated)	-41.0	25517*	-9.8	4.1	8.6	-3.6	2.4
COc1ccc(OC)c(NC(=O)C(CC(=O)O)NCc2ccco2)c1 (configuration not stated)	-10.0	2131	12.9	·	·	1.3	6.6
Cc1cc(COC(=O)C2N3C(=O)[C@@H](NC(=O)COc4ccccc4)[C@H]3SC2(C)C)on1 (some centres not stated)	-4.5	3979	·	·	·	8.1	·
O=c1[nH]c(/C=C/c2cccc3ccccc23)nc2ccccc12	-42.7	4084	0.7	0.7	14.7	2.9	4.4
CCNc1ccc(S(=O)(=O)N(C)C)cc1NCC(=O)Nc1ccccc1Br	-12.3	4121	3.6	-4.1	13.8	-6.9	-3.4
CC(=O)Nc1ccc(S(=O)(=O)NC2(C(F)(F)F)C(=O)NC(C)=C2C#N)cc1 (configuration not stated)	-22.1	3356	-0.2	-4.4	3.6	-1.2	0.4
CNC(=O)C1=C(C)Nc2nc3ccccc3n2C1c1ccc(F)cc1 (configuration not stated)	-18.1	4941	3.4	13.6	-1.2	9.6	2.9
COc1ccc(C(=O)CCNc2cccc(Cl)c2)cc1	-66.5	7482	-9.6	20.7	17.9	12.8	4.8
CC(=O)Nc1c(C#N)c(C(C)(C)C)cn1C	-12.0	9723	-7.9	-4.2	6.7	-0.6	-1.5
COc1cc(C2C3C(=O)N(c4ccccc4)C(=O)C3ON2c2ccccc2)cc(OC)c1OC (configuration not stated)	-9.2	2397	-5.2	·	·	-4.4	0.3
O=C(CS(=O)(=O)c1ccccc1)Nc1nnc(Cc2ccccc2)s1	-1.6	5274	2.6	12.4	7.8	9.4	8.1
N#C/C(=C(/O)CON=Cc1ccccc1Cl)c1nc2ccccc2[nH]1	·	·	-0.8	8.1	-0.3	·	9.2
COCCNC(=S)N(CCc1c(C)[nH]c2ccc(OC)cc12)Cc1cccnc1	-13.7	3000	13.4	-2.5	-11.1	-5.0	2.0

# Hits appear at their usual frequency. About 4% of those tested had a hit in this group.
